Assay outcomes deposited in PubChem by National Center for Advancing Translational Sciences (NCATS).
Rango release inh: qHTS Assay for Inhibitors of RanGTP induced Rango (Ran-regulated importin-beta cargo) - Importin beta complex dissociation; Potency, µM (highest dose often 46.1 µM), without a hit: at the top dose activity change, negative = inhibition; Biochemical FRET Rango-importin beta, RanGTP-induced dissociation; Snurportin-1 (Homo sapiens) + GTP-binding nuclear protein Ran (Homo sapiens) + Importin …; 340,000 compounds, 0.071% hits; AID 540253, 2011; active means falling FRET ratio curve, often poorly fitted, with flat reads before Ran was added; inconclusive means other falling curves, or compound fluorescence or quenching; inactive means flat or rising ratio curve;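 also: potency is read from the fitted curve at half-maximal effect; % of control where 0% means no effect; nearly all actives have a fitted effect of over 45% in size; -100% = wells without RanGTP and RCC1; the record marks most hits as doubtful in a second field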
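Quantitative HTS using a FRET biosensor: 0.1 uM Rango, 0.25 uM importin beta, 0.6 uM Ran, 2 mM GTP, 0.2 uM RCC1 final, PBS with DTT, Tween-20 and BSA. Post-read taken 45 min after Ran addition.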
miR-21 reporter: qHTS Assay for Modulators of miRNAs and/orActivators of miR-21. Potency, µM (series often up to 38.3 µM), for the others: top-dose reporter change, positive = more light. 340,000 tested, under 10 active. HeLa miR-21 FLuc reporter, luciferase, 48 h. AID 2288, 2010; active = well fitted rising curve with a large enough effect; inconclusive = small, poorly fitted or top-dose-only effect; inactive = no such curve, though single readings can be large or run the other way;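 also: % of control where 0% means no effect; miR-21 action dims this reporter so a rising signal means less miR-21 action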
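HeLa cells stably expressing CMV-driven firefly luciferase with a downstream miR-21 binding sequence, endogenously expressing miR-21, were treated with titrations (up to about 40uM final) for 48 hours at 37 degree Celsius. Luciferase luminescence was read after lysis.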
GLA inh pH 4.5: qHTS Assay for Inhibitors of Human alpha-Galactosidase at pH 4.5; Alpha-galactosidase A (Homo sapiens), P06280; purified enzyme, 4-MU-alpha-Gal fluorescence, pH 4.5; activity change, negative = inhibition, % at 105 µM; 230,000 tested, under 10 active; AID 1467, 2008; inconclusive = small, poorly fitted or top-dose-only inhibition, or a rising curve; inactive = flat fitted curve, though single readings scatter; no compound was filed as active;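 also: 0% = full activity with enzyme and -100% = basal without enzyme; dose as in the result columns while the protocol names 77 µM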
Target sequence (P06280 whole entry, looked up): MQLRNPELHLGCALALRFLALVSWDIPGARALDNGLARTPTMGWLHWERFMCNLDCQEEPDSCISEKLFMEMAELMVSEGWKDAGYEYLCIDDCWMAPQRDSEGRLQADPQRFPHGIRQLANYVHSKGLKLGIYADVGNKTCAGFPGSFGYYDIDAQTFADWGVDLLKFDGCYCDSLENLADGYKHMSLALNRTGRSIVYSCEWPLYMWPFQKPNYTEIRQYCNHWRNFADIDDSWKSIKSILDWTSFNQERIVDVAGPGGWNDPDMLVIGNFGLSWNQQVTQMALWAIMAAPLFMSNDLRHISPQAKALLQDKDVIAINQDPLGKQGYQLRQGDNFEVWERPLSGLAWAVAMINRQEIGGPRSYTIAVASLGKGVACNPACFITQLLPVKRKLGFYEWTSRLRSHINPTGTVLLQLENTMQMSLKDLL
Rango complex inh: qHTS Assay for Inhibitors of Rango (Ran-regulated importin-beta cargo) - Importin beta complex formation. Importin subunit beta-1 (Homo sapiens), Q14974. Rango CFP/YFP FRET sensor + importin beta, 45 min. Potency, µM (series often up to 92.2 µM), inactives show at the top dose inhibition of complex formation. 340,000 compounds, 0.031% hits; active = rising FRET ratio curve, often small or poorly fitted; inconclusive = mostly compound fluorescence or quenching in the first reads; inactive = flat curves in all reads;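 also: potency is read from the fitted curve at half-maximal effect; 0% = DMSO wells and 100% = buffer wells lacking importin beta; nearly all actives have a fitted effect of over 15% in size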
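FRET biosensor Rango (snurportin 1 IBB between N-terminal EYFP and C-terminal Cerulean), 50 nM in PBS/1 mM DTT/0.02% Tween-20/0.1% BSA, preincubated 5 min RT with compound; 0.125 microM importin beta added, 45 min RT, CFP/YFP FRET ratio read.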
An asterisk follows results filed as active; & = joins results of further samples. This is a subset; the hit share may differ from the screen's.

For c1ccc(CNC2CC3CCC2C3)cc1 (configuration not stated) the results were Rango release inh 9% and Rango complex inh 2.4%.
For O=S(=O)(NCc1ccccc1)NCc1ccccc1 the results were Rango release inh -16%, miR-21 reporter -2%, GLA inh pH 4.5 7 and Rango complex inh 0.8%.
Screening Cc1ccc(N)cc1CN1CCCC1=O returned Rango release inh -2%, miR-21 reporter -6%, GLA inh pH 4.5 -4 and Rango complex inh 4.1%.
`O=C(c1cccnc1)N1CCN(S(=O)(=O)c2ccc3ccccc3c2)CC1` gave Rango release inh 25%, miR-21 reporter -1%, GLA inh pH 4.5 -1 and Rango complex inh 12%.
For CC(=O)c1c(C(C)=O)c(C)n(-c2ccc(N)cc2)c1C the results were Rango release inh 19%, miR-21 reporter -6%, GLA inh pH 4.5 10 and Rango complex inh 1.2%.
O=C1Nc2ccccc2/C1=N/N=C/c1cccc(O)c1 was read as Rango release inh -3%, miR-21 reporter -4%, GLA inh pH 4.5 -3 and Rango complex inh 1.3%.
`CC1Sc2ccc(S(=O)(=O)N3CCC(C(N)=O)CC3)cc2NC1=O` (configuration not stated) gave Rango release inh 12%, miR-21 reporter 3% and Rango complex inh -1.6%.
For O=C(OCC(=O)N1CCN(C(=O)c2ccco2)CC1)C1=COCCO1 the results were Rango release inh -5%, miR-21 reporter -3%, GLA inh pH 4.5 1 and Rango complex inh 0.5%.
For CCOC(=O)c1c(SCc2ccccc2)n[nH]c1N the results were Rango release inh 15%, miR-21 reporter 0% and Rango complex inh -0.8%.
For O=C(Nc1ccccc1Cl)C1C(c2ccccc2)C1(Cl)Cl (configuration not stated) the results were Rango release inh 1%, miR-21 reporter 13% and Rango complex inh -2.9%.
Screening O=c1oc2ccccc2n1Cc1cccc(C(F)(F)F)c1 returned Rango release inh -12% and Rango complex inh -2.1%.
`Cc1ccc(NC(=O)C2CC(=O)N(c3ccccc3Cl)C2)cc1S(=O)(=O)N1CCOCC1` (configuration not stated) gave Rango release inh -9% and Rango complex inh -0.5%.
`CC(C)(C)c1ccc(S(=O)(=O)N2CCC(N3CCCCC3)CC2)cc1` gave Rango release inh -5%, miR-21 reporter 5% and Rango complex inh -2.2%.
Clc1ccc(NC2=NCCC2)cc1Cl was read as Rango release inh 10%, miR-21 reporter -5%, GLA inh pH 4.5 4 and Rango complex inh -1.9%.
Screening O=C(CNC(=O)c1ccccc1)NCC(=O)OCC(=O)c1ccccc1 returned Rango release inh -7%, miR-21 reporter 6%, GLA inh pH 4.5 -4 and Rango complex inh 0.2%.
CCOc1ccc(-n2c(COc3ccccc3)nnc2SCC(N)=O)cc1 was read as Rango release inh 1%, miR-21 reporter -2%, GLA inh pH 4.5 2 and Rango complex inh 0.6%.
`CC(=O)N1CCCc2cc(S(=O)(=O)N3CCC(C)CC3)ccc21` gave Rango release inh 19%, miR-21 reporter -5%, GLA inh pH 4.5 9 and Rango complex inh 1.9%.
Screening c1ccc(C2[C@H]3CN(CC4CCCCC4)[C@H](c4ccccc4)C34CC2(c2cccnc2)C4)cc1 (some centres not stated) returned Rango release inh 11%, miR-21 reporter 0%, GLA inh pH 4.5 2&-12 and Rango complex inh -3.8%.
c1ccc(CCc2cn(C[C@H]3CC[C@@H]([C@@H]4CC[C@H](Cn5cc(CCc6ccccc6)nn5)O4)O3)nn2)cc1 was read as Rango release inh 7%, miR-21 reporter 7% and Rango complex inh -4.9%.
`CCO[C@@H]1OC(C(=O)N2CCCCCCC2)=C[C@H](c2ccc(C(F)(F)F)cc2)[C@H]1CCCO` gave Rango release inh 2%, miR-21 reporter 9%, GLA inh pH 4.5 -4 and Rango complex inh -0.3%.
Screening CCOC(=O)N1CCN(C(=O)CNC(=O)c2ccc(Br)cc2)CC1 returned Rango release inh -17%, miR-21 reporter -2% and Rango complex inh -0.5%.
`CCOC(=O)C1CCCN(CC(=O)Nc2cccc(C(C)=O)c2)C1` (configuration not stated) gave Rango release inh 13%, miR-21 reporter -5%, GLA inh pH 4.5 -3 and Rango complex inh 1.9%.
`CC(=O)NC(Cc1ccccc1)C(C)=O` (configuration not stated) gave Rango release inh 8%, miR-21 reporter 4%, GLA inh pH 4.5 2 and Rango complex inh 2.1%.
Screening O=C(CNC(=O)c1ccco1)Nc1cccc(Cl)c1 returned Rango release inh 1%, miR-21 reporter -10% and Rango complex inh -0.2%.
CCc1ccc(OCC(=O)NC(=S)Nc2ccc(C(C)=O)cc2)c(Br)c1 was read as Rango release inh 9%, miR-21 reporter -7%, GLA inh pH 4.5 -19 and Rango complex inh -0.2%.
Screening COC(=O)N1CC=CC1(C)C(=O)NCc1cc(F)cc(C(F)(F)F)c1 (configuration not stated) returned Rango release inh 0%, miR-21 reporter -15%, GLA inh pH 4.5 -5&-28 and Rango complex inh -1.0%.
Screening CCOc1ccc(S(=O)(=O)n2cc(F)c(=O)[nH]c2=O)cc1[N+](=O)[O-] returned Rango release inh 8%, miR-21 reporter -15% and Rango complex inh 3.7%.
`CCC(C)(C)NC(=O)C1CCN(S(=O)(=O)c2cccs2)CC1` gave Rango release inh -9%, miR-21 reporter -10%, GLA inh pH 4.5 4 and Rango complex inh 8.1%.
Cc1ccc(SCCC(=O)NNC(=O)c2ccccc2F)cc1 was read as Rango release inh 20% and Rango complex inh -1.6%.
For Cc1ccc(SCc2cc(=O)[nH]c(/N=C(\N)Nc3ccc(C)c(C)c3)n2)cc1 the results were Rango release inh -3%, miR-21 reporter -1%, GLA inh pH 4.5 -7 and Rango complex inh 3.7%.
For CCCCN(C(=O)/C=C/c1ccc(OC)cc1)C1CCS(=O)(=O)C1 (configuration not stated) the results were Rango release inh 6% and Rango complex inh 4.8%.
CN1c2ccsc2/C(=N/Nc2ccc(F)cc2)CS1(=O)=O was read as Rango release inh 7%, miR-21 reporter -47%, GLA inh pH 4.5 -2 and Rango complex inh -1.1%.
Screening OCCC1CN(Cc2ccc(F)cc2)CCN1CCc1ccccc1 (configuration not stated) returned Rango release inh -13%, miR-21 reporter 3% and Rango complex inh 0.5%.
`O=C1/C(=C/c2ccccc2)CN(C(=O)CCN2CCOCC2)C/C1=C\c1ccccc1` gave Rango release inh 3% and Rango complex inh 1.1%.
Cc1ccc(C)c(NC(=O)CSc2nnc(CNC(=O)c3ccco3)n2C)c1 was read as Rango release inh -1%, miR-21 reporter 5% and Rango complex inh 0.0%.
CCCn1c(SC(C)C(=O)NCC2CCCO2)nc2sc(CC)cc2c1=O (configuration not stated) was read as Rango release inh 2%, miR-21 reporter 2% and Rango complex inh 3.7%.
`N#CCC(=O)N1CCn2c1nc1ccccc12` gave Rango release inh -11%, miR-21 reporter -8%, GLA inh pH 4.5 -1 and Rango complex inh -0.1%.
For NS(=O)(=O)c1ccc(NC(=O)CN2C(=O)CCC2=O)cc1 the results were Rango release inh -1%, miR-21 reporter 0%, GLA inh pH 4.5 5 and Rango complex inh -2.8%.
Screening C#CCOCCOCCOCCNc1nc(N2CCN(C(=O)Cn3cc(CCO)nn3)CC2)nc(N2CCN(C(=O)[C@H](C(C)C)n3cc(CCO)nn3)CC2)n1 returned Rango release inh 14%, miR-21 reporter 1%, GLA inh pH 4.5 4 and Rango complex inh -0.1%.
Screening NC(=S)NN=CCn1cc([N+](=O)[O-])c(=O)[nH]c1=O returned Rango release inh 13% and Rango complex inh -0.9%.
For O=C(CCC1CCCCC1)Nc1nncs1 the results were Rango release inh 12%, miR-21 reporter -7% and Rango complex inh 3.6%.
O=C(c1cccc(Cl)c1)N(Cc1cccs1)C1CCS(=O)(=O)C1 (configuration not stated) was read as Rango release inh 3%, miR-21 reporter -4%, GLA inh pH 4.5 7 and Rango complex inh -0.6%.
O=C(CN1C(=O)C2CC=CCC2C1=O)NC1CCCc2ccccc21 (configuration not stated) was read as Rango release inh 1%, miR-21 reporter -1%, GLA inh pH 4.5 -1 and Rango complex inh -1.5%.
`Cc1cc2nc(SC(C)C(=O)O)[nH]c2cc1C` (configuration not stated) gave Rango release inh 6%, miR-21 reporter -13%, GLA inh pH 4.5 -4 and Rango complex inh -0.2%.
Screening CC(=O)Nc1ccc(NC(=O)c2ccccc2Sc2ccc([N+](=O)[O-])cc2Cl)cc1 returned Rango release inh -3%, miR-21 reporter -3%, GLA inh pH 4.5 -8 and Rango complex inh 0.1%.
`COc1cc2[nH]c(=S)n(NC(=O)CC(C)C)c(=O)c2cc1OC` gave Rango release inh 1%, miR-21 reporter 1%, GLA inh pH 4.5 -1 and Rango complex inh -0.3%.
For CCc1ccc(NC(=S)Nn2cnnc2)cc1 the results were Rango release inh 5%, miR-21 reporter -3%, GLA inh pH 4.5 0 and Rango complex inh -0.5%.
O=C1C2C3CCC(C3)C2C(=O)N1CNc1ccccc1 (configuration not stated) was read as Rango release inh 8%, miR-21 reporter -4%, GLA inh pH 4.5 3 and Rango complex inh 1.7%.
CCOc1c(Br)cc(CNCc2cccs2)cc1OC was read as Rango release inh 0%, miR-21 reporter -11%, GLA inh pH 4.5 1 and Rango complex inh -0.9%.
`CC(C)(C)OC(=O)N1CCC[C@@H]1C(=O)N1CCC(C(=O)O)CC1` gave Rango release inh 0%, miR-21 reporter 1%, GLA inh pH 4.5 3 and Rango complex inh 0.9%.
Screening O=C(NCCN1CCOCC1)c1noc2c1CCc1ccccc1-2 returned Rango release inh 0%, miR-21 reporter -43%, GLA inh pH 4.5 -4 and Rango complex inh -0.2%.
Screening CC(C)(C)CN1C(=O)C(=O)NC[C@H]1Cc1cccc2ccccc12 returned Rango release inh -8%, miR-21 reporter 1%, GLA inh pH 4.5 12 and Rango complex inh -1.1%.
Cn1cc([N+](=O)[O-])c(C(=O)Nc2ccc(-c3nc4ccccc4o3)cc2)n1 was read as Rango release inh -2%, miR-21 reporter -68%, GLA inh pH 4.5 11 and Rango complex inh 0.3%.
For C=CCn1c(-c2cccc(S(=O)(=O)N3CCOCC3)c2)n[nH]c1=S the results were Rango release inh 6% and Rango complex inh 3.5%.
For NC(=O)c1ccc(NC(=O)c2ccc3c(c2)OCO3)cc1 the results were Rango release inh 7%, miR-21 reporter -56%, GLA inh pH 4.5 0 and Rango complex inh 0.3%.
